Bioassay records from PubChem BioAssay.
TRPML1 inh – human mucolipin-1 channel inhibition; Q9GZU1; TRPML1-inducible cells, Ca2+ dye fluorescence, FDSS; active compounds read low; inhibition of EC80 agonist-evoked calcium signal; activity change, negative = inhibition, % (concentration not given with the values); actives 0.02% (n = 390,000); in the data active means activity change below about -50%; inconclusive means about -30% to -50%; inactive means above about -30%;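 also: stimulus is agonist 54-4 at its EC80 concentration; % is scaled to controls: 0 for no effect and ±100 for the full control effect; the text of the record puts the active cut at -80%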
Target sequence (Q9GZU1 whole entry, looked up): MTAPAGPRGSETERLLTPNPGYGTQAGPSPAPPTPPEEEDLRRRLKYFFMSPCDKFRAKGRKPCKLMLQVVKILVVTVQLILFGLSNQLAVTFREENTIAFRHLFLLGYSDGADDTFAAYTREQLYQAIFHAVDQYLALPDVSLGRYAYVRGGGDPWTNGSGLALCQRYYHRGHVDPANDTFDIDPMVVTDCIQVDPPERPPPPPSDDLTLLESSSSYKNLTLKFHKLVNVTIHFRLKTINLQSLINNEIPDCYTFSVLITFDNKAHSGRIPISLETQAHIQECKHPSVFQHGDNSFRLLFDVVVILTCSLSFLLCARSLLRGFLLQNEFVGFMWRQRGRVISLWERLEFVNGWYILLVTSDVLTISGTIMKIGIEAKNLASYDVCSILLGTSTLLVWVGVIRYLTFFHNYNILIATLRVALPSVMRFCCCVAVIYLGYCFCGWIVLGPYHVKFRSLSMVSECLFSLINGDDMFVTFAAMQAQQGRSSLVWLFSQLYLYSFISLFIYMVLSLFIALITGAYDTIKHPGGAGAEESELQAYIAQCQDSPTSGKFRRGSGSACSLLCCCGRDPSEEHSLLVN
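Calcium fluorescence in TRPML1-DL cells induced overnight with Tet: a 110 s read after compound pin addition, then a 110 s antagonist read after challenge with 54-4 at 4 uM final (EC80).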
ClpP mod – qHTS Assay for Activators of ClpP | ATP-dependent Clp protease proteolytic subunit (Bacillus subtilis (strain 168)), P80244 | purified B. subtilis ClpP, FRET peptide cleavage, 20 min | Potency, µM (titrated, usually from 57.5 µM), for the others: top-dose activity change, negative = active | actives 1.9% (n = 340,000); active = well fitted falling curve with a large enough effect; inconclusive = small, poorly fitted or top-dose-only effect; inactive = no such curve, though single readings can be large or run the other way; also: potency is read from the fitted curve at half-maximal effect; the source files actives as falling curves though it sought activators and does not explain the sign; nearly all actives have a fitted effect of over 65% in size; many hits overshoot -100%
Target sequence (P80244 whole entry, looked up): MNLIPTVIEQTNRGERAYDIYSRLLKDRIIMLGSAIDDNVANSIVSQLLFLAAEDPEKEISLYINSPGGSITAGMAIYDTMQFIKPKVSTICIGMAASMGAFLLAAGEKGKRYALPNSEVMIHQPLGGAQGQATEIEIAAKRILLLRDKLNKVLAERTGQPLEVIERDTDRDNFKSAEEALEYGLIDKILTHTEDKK
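Purified B. subtilis ClpP, 10 microg/mL final in Tris/HCl pH8 with KCl, BSA, glycerol and Tween-20, cleaved an Abz/nitrotyrosine-quenched decapeptide. Fluorescence (ex 320, em 430) was read at 0 and 20 min at room temperature. Delta was normalized to 5.8 microM ADEP and DMSO/no-enzyme controls.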
Menin-MLL FL inh – displaces fluorescein MLL peptide from human menin; FP activity change, % at 61.4 µM; AID 1766; 290,000 tested, under 10 active; Fluorescence polarization, fluorescein-MLL peptide displacement from menin; inconclusive = falling polarisation curve, or a change in total fluorescence; inactive = total fluorescence flat and polarisation flat or rising; no compound was filed as active; the % refers to the polarisation; negative = inhibition;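 also: % of control where 0% means no effect; inhibitors lower the polarisation; unlabelled MLL peptide was the positive control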
gsp antag – gsp mutant antagonism | gsp-mutant cells, cAMP HTRF, 30 min; control for the full effect not named in the record | Potency, µM (top dose mostly 76.9 µM), for the others: at the top dose activity change, negative = inhibition, usual class: inhibitors | actives 0.4% (n = 340,000) | AID 624288; active = falling curve of any shape with a large fitted effect; inconclusive = falling curve, mostly with a smaller effect; inactive = flat or rising curve; cell line not stated here;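 also: intracellular cAMP measured with PDE inhibitor Ro 20-1724 present during compound exposure; potency is read from the fitted curve at half-maximal effect; % is scaled to controls: 0 for no effect and ±100 for the full control effect; nearly all actives have a fitted effect of over 65% in size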
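Cells, 2000/well, grown 16–24 h in DMEM 10% FBS with 0.5 mg/ml G418, then compounds plus […] (300 uM addition stock), 30 min at 37C. cAMP read by HTRF (cAMP-d2 and anti-cAMP antibody-K in lysis buffer) after 30 min RT.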
TRPV1 PAM – potentiators of human vanilloid receptor 1 (TRPV1); Q8NER1; potentiation, % at 8.33 µM; actives 0.02% (n = 320,000); AID 540277; TRPV1-expressing cells, Fluo-8 calcium influx, capsaicin EC20 potentiation; host cell line not named in the record; control for the full effect not named in the record; active means potentiation above 80%; inconclusive means 30% to 80%; inactive means below 30%; also: 0% is about no effect
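Cells expressing TRPV1 were dye-loaded with Fluo-8 and read kinetically: 10 s baseline, 3 min after compound (agonist portion), then 2 min after EC20 capsaicin (allosteric enhancer portion). Calcium-bound dye fluorescence at 480/520 nm.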
Sfp PPTase inh – blocks B. subtilis Sfp PPTase activity | actives 3.5% (n = 310,000) | Q9F4F7 | Potency, µM, for the others: max response, negative = inhibition, most hits filed as inhibitors | Biochemical Sfp PPTase activity, qHTS; active = well fitted inhibition curve with a large enough effect; inconclusive = small, poorly fitted or top-dose-only effect, or another doubt; inactive = no such curve, though single readings can be large or run the other way;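 also: the enzyme is Sfp with the accession as filed and its product quenches rhodamine fluorescence; potency is read from the fitted curve at half-maximal effect; 0% = enzyme reaction without inhibitor and -100% = no enzyme wells; top concentration of the series not given in the record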
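Fluorescence-quenching assay: 15 nM Sfp-PPTase preincubated 15 min at room temperature with compound, then 5 uM rhodamine-CoA and 12.5 uM BHQ-2-labelled YbbR peptide added. Fluorescence (ex 525/em 598 nm) read at start and after 30 min; difference gives rate.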
gsp ag – activates gsp, the McCune-Albright syndrome mutation | gsp mutant cells, cAMP HTRF, 30 min; control for the full effect not named in the record | Potency, µM (series often up to 76.9 µM), inactives show at the top dose activation (cAMP increase), most hits filed as activators | actives 0.13% (n = 340,000) | AID 624287; active = well fitted activation curve with a large enough effect; inconclusive = small, poorly fitted or top-dose-only effect, or another doubt; inactive = no such curve, though single readings can be large or run the other way; cell line not stated here;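 also: phosphodiesterase inhibitor Ro 20-1724 added with compounds to block cAMP breakdown; potency is read from the fitted curve at half-maximal effect; nearly all actives have a fitted effect of over 60% in size; about a fifth of the inactives were tested at one dose only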
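Cells in DMEM/10% FBS with G418 were pretreated with compounds in DMSO plus […] (300 uM stock) for 30 min at 37C. cAMP was measured by HTRF (cAMP-d2 plus anti-cAMP antibody-K) after 30 min at room temperature.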
The depositor's hits bear a star; ? = inconclusive; . = not tested or not shown; [ ] = another dose, or the depositor's remark.

SMILES	TRPML1 inh	ClpP mod	Menin-MLL FL inh	gsp antag	TRPV1 PAM	Sfp PPTase inh	gsp ag
COC(=O)CSC1=C(C#N)C(=O)NC(c2ccccc2)S1 (centres undefined)	23	0.0%	0.5	-3%	-1	32µM*	7%
Cc1cccc(Nc2nc(CC(=O)O)cs2)c1	-17	.	10.0	4%	6	?	-3%
CC1(C)Cc2cccc(OCC(=O)Nc3ccccc3F)c2O1	2	1.2%	.	-2%	-20	.	-18%
Cc1ccc(NC(=O)c2ccc(S(=O)(=O)NCc3cccnc3)cc2)cc1C	-7	.	-6.8	-20%	-12	9%	?
CN1CCc2c(sc3c2C(=O)NC(c2cccc(OC(=O)c4cccs4)c2)N3)C1 (centres undefined)	0	4.5%	?	-7%	11	-30%	-4%
O=C(Cn1cnc2c(nnn2Cc2ccc(F)cc2)c1=O)Nc1ccc2c(c1)OCCO2	9	-0.9%	3.5	-2%	2	-12%	23%
O=C(CCNC(=O)c1ccc(Br)cc1)Nc1ccc(S(=O)(=O)Nc2ncccn2)cc1	5	-3.6%	.	6%	2	.	?
OC(CN1CCOCC1)Cn1c2ccccc2c2ccccc21 (centres undefined)	-15	-15%	0.3	8%	-8	4%	21%
COc1ccc(-c2noc(CCC(=O)N3CCN(c4ccccc4Br)CC3)n2)cc1	-5	-3.7%	.	-14%	.	.	.
CC12CCC(C(NC(=S)NN)C1=O)C2(C)C (centres undefined)	-5	.	.	9%	.	.	-5%
O=C(c1cc(COc2cccc(C(F)(F)F)c2)on1)N1CCC(Oc2cccnc2)CC1	-13	-2.9%	.	?	5	-2%	-30%
COc1ccc(C(=O)c2coc3ccc(O)c(CN4CCOCC4)c23)cc1	4	2.7%	3.7	-8%	5	15%	32%
Cc1ccccc1CNS(=O)(=O)c1c(C(=O)N2CCCC2)c(C)n(C)c1C	-10	-0.9%	-7.3	8%	7	13%	36%
COc1cc(/C=C(\C#N)C(=O)NCC2CCCO2)ccc1OCC(=O)O (centres undefined)	-4	.	1.3	2%	3	12%	-17%
CC(=O)c1cccc(NC(=O)NCCc2c[nH]c3ccccc23)c1	17	.	2.7	-7%	-7	?	-12%[15.4 µM]
CC(C)NC(=O)c1ccc(CN2CCc3ccccc3C2)cc1	.	-1.2%	1.8	4%	-3	8%	-30%[inhibitor]
COC(=O)c1ccc(NC(=O)c2ccc3c(c2)OCO3)cc1	3	-0.2%	-0.7	6%	5	19%	-12%
O=C(Cc1csc(NC(=O)Nc2cccc(Cl)c2)n1)NCc1cccnc1	6	1.4%	.	-7%	-11	.	10%
Cc1cc(S(=O)(=O)N2CCOCC2)c(C)s1	43	1.6%	2.4	?	-6	21%	-8%
O=C(c1ccco1)[C@@H]1[C@@H]2C(=O)N(c3ccc(F)cc3)C(=O)[C@@H]2[C@H]2C=Cc3ccccc3N21	32	-0.1%	?	-15%	10	50µM*	-6%[15.4 µM]
O=C(NCCCN1CCOCC1)C1CCN(S(=O)(=O)c2c(Cl)cccc2Cl)CC1	-22	-1.6%	-9.1	17%	-16	9%	0%
N#Cc1ccc(COC(=O)CCc2c[nH]c3ccccc23)cc1	20	-2.8%	.	10%	1	0%	11%
CC(Sc1nnc(COc2ccc([N+](=O)[O-])cc2)n1C)C(=O)O (centres undefined)	-13	.	0.4	11%	9	10%	16%[15.4 µM]
CCc1ccc(/C=C2\Oc3cc(OC(=O)N4CCOCC4)ccc3C2=O)cc1	13	-13%	5.8	-24%	-30	-16%	-21%
O=C1CCC([N+](=O)[O-])C(c2cc(Br)ccc2F)N1 (centres undefined)	-6	1.2%	-4.6	7%	6	11%	3%[15.4 µM]
Cc1ccc(C(O)c2ccc(-n3ccnc3)cc2)cc1 (centres undefined)	27	-8.4%	6.3	1%	-21	13%	0%
O=c1c2c([nH]n1-c1ccccc1)CCSC2	-19	.	-5.9	-12%	2	-7%	-42%[inhibitor]
O=C(Nc1cccc(Cl)c1N1CCOCC1)c1ccc(Br)o1	6	-2.1%	.	-11%	-9	-2%	10%
COc1cccc(CN2C(=O)C3(C(C#N)=C(N)OC4=C3C(=O)CCC4)c3ccccc32)c1 (centres undefined)	12	-0.7%	0.6	-3%	0	11%	-61%[inhibitor]
CCOC(=O)C1CCN(Cc2cccc(OC)c2)CC1	-9	-0.3%	-0.8	11%	9	-19%	-29%
O=C(NCC1(O)CCCCC1)C1CCC(=O)N(Cc2ccccc2F)C1 (centres undefined)	-2	-0.7%	0.1	4%	-2	4%	-41%[inhibitor]
Cc1cc(C)c2[nH]c(=O)c(CN(Cc3cccnc3)C(=S)NCCCN(C)C)cc2c1	-21	.	-4.3	14%	1	-4%	-4%[15.4 µM]
CN(CC(=O)Nc1ccc(Cl)c(C(F)(F)F)c1)C(=O)C1CCCO1 (centres undefined)	-10	-1.4%	.	2%	-4	.	-28%
Cc1cc(C)nc(N/N=C/c2ccccc2Cl)n1	24	1.0%	-3.9	1%	12	-18%	1%
CCN1CCN(C(=O)c2cnn3c(C(F)F)cc(-c4ccc(C)cc4)nc23)CC1	5	-17%	0.8	4%	-4	12%	-6%
CC1CCC(NS(=O)(=O)c2ccc3c(c2)n(C)c(=O)c(=O)n3C)CC1 (centres undefined)	-3	-13%	0.6	18%	-9	8%	1%
Cc1nc2ccccc2cc1C(=O)Nc1ccccc1Cl	40	-0.1%	0.2	15%	4	-17%	-7%[15.4 µM]
Cc1ncc(C[n+]2csc(CCOC(=O)C34CC5CC(CC(C5)C3)C4)c2C)c(N)n1	25	.	2.0	-3%	4	13%	7%[15.4 µM]
CCOc1ccccc1NC(=O)c1ccc2nc[nH]c2c1	-2	.	-2.5	0%	5	6%	11%
CN1C(=O)NC(c2ccc(O)cc2)C(C(=O)c2cccs2)C1(O)C(F)(F)F (centres undefined)	4	-5.7%	1.0	-11%	7	28%	-44%[inhibitor]
COc1cc2nc(CN3CCN(S(=O)(=O)c4ccc(Cl)cc4)CC3)[nH]c(=O)c2cc1OC	-7	0.3%	2.6	-18%	-6	18%	-85%[inhibitor]
C[C@H](CO)N1C[C@H](C)[C@@H](CN(C)Cc2ccc(Oc3ccccc3)cc2)Oc2c(NC(=O)c3ccncc3)cccc2C1=O	1	2.5%	.	?	.	.	.
O=C(COC(=O)C(CO)NS(=O)(=O)c1ccc(Br)cc1)Nc1ccc2c(c1)OCCO2 (centres undefined)	13	-1.7%	.	-6%	.	.	-98%[inhibitor]
COC(=O)[C@H]1C[C@H](C(=O)O)[C@@H](C)C1(C)C	7	-1.3%	.	4%	?	.	-10%
N#Cc1cccc(CN2CCCN(Cc3ccc(F)cc3)S2(=O)=O)c1	45	0.2%	-1.9	-31%	-19	6%	-13%
Nc1ccccc1-c1ccc([N+](=O)[O-])cc1	9	.	.	5%	.	.	-1%
O=C(Nc1cc(Cl)ccc1N1CCOCC1)c1ccc(F)c(S(=O)(=O)N2CCOCC2)c1	10	59%	.	5%	-8	.	-2%
CC(=O)N1CCN(C(=S)NC(=O)c2ccc(S(=O)(=O)N3CCOCC3)cc2)CC1	9	-2.0%	-0.5	5%	-6	?	-33%
COc1ccccc1NS(=O)(=O)c1cccc(NS(=O)(=O)c2cc(C(=O)O)ccc2OC)c1	24	-1.7%	.	5%	.	.	-3%[15.4 µM]
COc1cc(NC(=O)c2c(F)cccc2F)nc(OC)n1	9	-3.6%	1.8	-3%	-12	15%	19%
Cc1ccc(NC(=O)NCc2ccc3c(c2)OCO3)cc1C	-17	.	-3.7	11%	1	0%	11%[15.4 µM]
COc1cc2c(cc1OC)CN(C(=O)CN1C(=O)NC3(CCCCC3C)C1=O)CC2 (centres undefined)	22	-1.3%	.	9%	1	.	23%
CC(=O)N(CCc1cccc(C)c1)Cc1cc2ccc(C)cc2[nH]c1=O	50	-11%	-1.1	-8%	-11	7%	18%
C=CCN1C(=O)/C(=C2/Sc3ccccc3N2CCCS(=O)(=O)O)SC1=S	13	-1.6%	?	-6%	-2	45µM*	?
Clc1ccc(OCc2cn3cccnc3n2)c2ncccc12	-13	-3.6%	3.1	2%	-10	7%	21%[15.4 µM]
O=C(Nc1cccc(C(=O)N2CCOCC2)c1)c1cccnc1	-23	-0.8%	2.7	10%	-3	4%	?
Cc1ccc2c(c1)CCCN2C(=O)C1CCCO1 (centres undefined)	3	-2.3%	1.4	2%	-5	11%	7%
CCn1c(=O)cc(OCC(=O)Nc2cc(C)ccn2)c2ccccc21	6	-7.8%	2.3	10%	3	-9%	15%
COc1ccc(S(=O)(=O)N2CCOCC2)cc1NC(=O)CC(C)c1ccccc1 (centres undefined)	32	0.3%	.	6%	.	.	26%
CCOC(=O)c1c(S(=O)(=O)N2CCN(Cc3ccccc3)CC2)c(C)n(C)c1C	16	-4.2%	0.4	3%	15	1%	-3%
(continued)
SMILES	TRPML1 inh	ClpP mod	Menin-MLL FL inh	gsp antag	TRPV1 PAM	Sfp PPTase inh	gsp ag
CCOC(=O)C1=NOC(CN(c2ccccc2)S(=O)(=O)c2ccc(Cl)cc2)C1 (centres undefined)	-7	.	1.3	-15%	9	18%	-33%[inhibitor]
CCCCCCNc1nc(-c2ccc(OC)cc2)c(CCC(=O)O)s1	5	-17%	8.6	-2%	21	-11%	-26%
COc1nc(C)ccc1-c1noc(-c2cccnc2)n1	30	0.1%	-5.0	2%	-26	16%	5%
CC(C)CN1CCN(C(=O)CCc2nnc(Cc3c[nH]c4ccccc34)o2)[C@@H](C)C1=O	2	-0.8%	.	7%	4	13%	?
O=C(CN1C(=O)NC(Cc2ccccc2)C1=O)Nc1ccccc1F (centres undefined)	-3	0.8%	.	13%	10	.	3%
CCOc1ccc(C2CC(c3ccc(F)cc3)Nc3nc(N)nn32)cc1 (centres undefined)	-7	1.1%	-1.4	3%	-2	-15%	-3%
